# AF4-AF9 inh: inhibitors of human MLL-AF4/AF9 interaction | AlphaScreen, biotin-AF4 peptide binding to FLAG-AF9 | inhibition, % at 10 µM | 0.47% of 350,000 active;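 active = every replicate reaching a set inhibition limit, whatever the replicate mean, cut at about 25% in these data; inconclusive = mean inhibition reaches that limit but some replicates miss it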;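 also: 0% = plate neutral control median and 100% = total signal loss; the record names both 10 and 1 µM as test concentration; the first replicate is given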
# Beta apoptosis: beta cell apoptosis inhibition; AID 435005; INS-1E cytokine-induced death, ATP luminescence, 48 h; percent of positive-control rescue, neutral wells zero; 0.8% of 300,000 active; protection from apoptosis, % (no concentration beside the values);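 active = all replicates at 75% or more, or half of them and the mean; inconclusive = half reach 75% but not the mean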;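 also: 0% = cytokine-treated negative control wells and 100% = positive control rescue; higher means more ATP so stronger rescue from cytokine killing; wells of about 40 µL received 100 nL stock; the first replicate is given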
# LANA-H2B inh: blocks KSHV LANA binding to histone H2A/H2B; Q9QR71; cell-free LANA-H2A/H2B peptide, fluorescence polarization; inhibition, % (concentration not given with the values); 0.6% of 320,000 active; AID 2629; in the data active = inhibition mostly above about 10%, no sharp cut-off; inactive = mostly below about 6.7%;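 also: stock transfer was 7.5 nL into about 10 µL; 0% = median of vehicle wells and 100% = median of positive control wells; one replicate is shown; the record names a cut of 25% in any replicate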
# Target sequence (Q9QR71 whole entry, looked up): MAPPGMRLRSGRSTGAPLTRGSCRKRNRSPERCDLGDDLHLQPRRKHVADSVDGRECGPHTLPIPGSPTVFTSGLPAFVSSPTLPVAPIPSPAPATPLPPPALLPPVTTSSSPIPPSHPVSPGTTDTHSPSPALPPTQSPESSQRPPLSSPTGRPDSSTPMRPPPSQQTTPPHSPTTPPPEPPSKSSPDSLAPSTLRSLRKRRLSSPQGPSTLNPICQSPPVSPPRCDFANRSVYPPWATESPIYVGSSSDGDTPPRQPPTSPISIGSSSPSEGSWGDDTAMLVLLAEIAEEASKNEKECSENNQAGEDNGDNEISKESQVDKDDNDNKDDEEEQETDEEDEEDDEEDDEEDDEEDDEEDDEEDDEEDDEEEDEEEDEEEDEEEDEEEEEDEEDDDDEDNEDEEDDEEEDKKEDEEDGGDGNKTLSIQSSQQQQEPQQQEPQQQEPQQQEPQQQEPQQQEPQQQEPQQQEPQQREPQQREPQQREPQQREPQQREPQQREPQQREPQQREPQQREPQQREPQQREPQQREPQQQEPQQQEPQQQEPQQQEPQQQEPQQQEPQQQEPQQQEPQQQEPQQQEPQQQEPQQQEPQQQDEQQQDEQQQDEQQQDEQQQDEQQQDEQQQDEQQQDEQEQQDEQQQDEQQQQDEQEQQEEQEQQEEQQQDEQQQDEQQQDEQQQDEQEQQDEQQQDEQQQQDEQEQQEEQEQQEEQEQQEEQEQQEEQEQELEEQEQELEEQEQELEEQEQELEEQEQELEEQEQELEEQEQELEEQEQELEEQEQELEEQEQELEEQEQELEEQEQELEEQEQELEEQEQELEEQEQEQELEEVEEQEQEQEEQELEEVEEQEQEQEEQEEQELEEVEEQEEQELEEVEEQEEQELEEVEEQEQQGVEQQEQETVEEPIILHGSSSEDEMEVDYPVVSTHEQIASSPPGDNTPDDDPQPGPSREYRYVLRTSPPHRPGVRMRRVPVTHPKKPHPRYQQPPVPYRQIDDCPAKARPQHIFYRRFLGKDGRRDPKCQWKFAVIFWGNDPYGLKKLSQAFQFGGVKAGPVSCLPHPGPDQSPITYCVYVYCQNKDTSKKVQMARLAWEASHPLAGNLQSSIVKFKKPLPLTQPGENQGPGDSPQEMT
# A1 inh: inhibitors of the anti-apoptotic protein A1, read as caspase activation | MEF A1-2A-BIM cells, Caspase-Glo 3/7 luminescence, 3 h; percent of clofoctol response, vehicle zero | 0.066% of 330,000 active | caspase activation, % (no concentration beside the values);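 active = over half of replicate activation scores above 10%, or exactly half above 10 with the replicate mean above 10; inconclusive = replicate mean below 10 yet half the replicates above 10; inactive = over half of replicates below 10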;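 also: wells of about 30 µL received 50 nL stock; many hits fall short of the cut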
# RanGTP-Imp inh: disruptors of Ran-importin-beta complex formation – biochemical, FRET, CFP-Ran, YFP-importin-beta, homogeneous, primary screen. cell-free CFP-Ran/YFP-importin-beta FRET ratio. inhibition, % (no concentration beside the values). 1.1% of 300,000 active;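 active = most replicates above 15%; inconclusive = exactly half above 15%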;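 also: 0% = DMSO wells and 100% = Ran loaded with GDP instead of GTP; wells of about 40 µL received 100 nL stock; the first replicate is given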
# Calb FLC: affects C. albicans growth with fluconazole; C. albicans CaCi-2 (fluconazole-resistant clinical isolate) + fluconazole, Alamar Blue growth, 48 h; growth inhibition, % (no concentration beside the values); 0.57% of 300,000 active;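 active = most replicates above 75%; inconclusive = exactly half above 75%; inactive = most below 75%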;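 also: all wells also contain fluconazole at 8 µg/ml as a sub-toxic cotreatment; 0% = median of DMSO wells and 100% = median of geldanamycin control wells; wells of about 8 µL received 7.5 nL stock; the first replicate is given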
# T cruzi inh: T. cruzi replication inhibition | T. cruzi beta-gal in NIH3T3, luminescence, 90 h | inhibition, % (test concentration not listed) | 1.4% of 300,000 active;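 active = mean inhibition across valid replicates above about 55%, limit read from the data; inconclusive = mean below that limit but half or more replicates reach it; inactive = mean below it, under half of replicates reach it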;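 also: signal also drops with host cell toxicity which is not excluded here; 0% = plate median of DMSO wells and 100% = zero luminescence signal; higher percent means less beta-gal luminescence so fewer parasites; stock transfer was 50 nL into about 50 µL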
# Vif TR-FRET: inhibitors of Vif binding to APOBEC3G peptide, primary screen, biochemical, TR-FRET, GST-Vif 1-94, biotin-A3G peptide, dose response retest (AID 1117319); TR-FRET GST-Vif / biotin-A3G peptide binding; higher % means a stronger effect; test concentration not given here; strong numbers were not always called active; 0.57% of 260,000 active; one-dose inhibition, %; IC50 in µM for titrated hits;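 active = above the screen mean plus three standard deviations and confirmed in dose response; inconclusive = results disagree or hit not tested in dose response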;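 also: Vif residues 1-94 fused to GST binding biotinylated APOBEC3G peptide 110-148; 0% = full assay without inhibitor and 100% = GST in place of GST-Vif; retest series ran down from 100 µM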
# Active calls of the source: *; ? = inconclusive; · = not tested or not shown.
SMILES,AF4-AF9 inh,Beta apoptosis,LANA-H2B inh,A1 inh,RanGTP-Imp inh,Calb FLC,T cruzi inh,Vif TR-FRET
O=C1OCC(CO)(CO)N=C1NNc1cc(Cl)ccc1Cl,·,-5.9,-3.6,-0.4,0.7,?,1.7,1.4%
CN(C)c1ccc(NC(=O)CN2CCc3ccccc3C2)cc1,4.6,-3.9,2.0,0.1,?,-8.5,0.3,·
NC(=O)C1CCCN(CC(O)COCc2ccc(Cl)cc2)C1 (stereo not given),-7.3,-2.0,-1.5,-0.3,7.8,-1.1,9.0,3.3%
COc1cc(/C=C2\SC(=S)N(NS(=O)(=O)c3ccc(C)cc3)C2=O)ccc1O,4.1,3.0,-8.4,-0.1,-0.5,-2.3,-3.5,-12.8%
O=C(NCCc1ccccc1)C(=O)NCCC1CCCCN1S(=O)(=O)c1cccs1 (stereo not given),-0.5,5.2,-7.3,0.1,?,0.5,17.0,·
CCn1c(SCC(=O)Nc2ccc(OC)c(OC)c2)nnc1-c1ccco1,2.0,-4.6,-5.1,-0.2,-1.4,0.1,-8.8,-6.7%
Cc1cccc(Nc2nc(NC(C)C)nc(Oc3ccc(=O)n(C)n3)n2)c1,·,2.5,-2.4,2.0,?,10.6,8.9,9.9%
CCOc1ccc(N(CC(=O)NCCc2ccc(C)cc2)S(=O)(=O)c2c(C)noc2C)cc1,-2.2,0.1,-3.0,0.0,-1.4,11.7,17.6,-5.3%
O=C(CCN1C(=O)/C(=C/c2ccccc2)SC1=S)NC1CCS(=O)(=O)C1 (stereo not given),-9.9,-12.2,0.0,0.1,0.4,-7.0,-12.9,·
S=C(Nc1ccccc1)Nc1nccs1,4.9,22.5,3.1,-0.5,0.5,-6.4,14.4,-6.3%

# 3 structures already listed, ordered by molecular weight, largest number first:
SMILES,AF4-AF9 inh,Beta apoptosis,LANA-H2B inh,A1 inh,RanGTP-Imp inh,Calb FLC,T cruzi inh,Vif TR-FRET
O=C(NCCc1ccccc1)C(=O)NCCC1CCCCN1S(=O)(=O)c1cccs1 (stereo not given),-0.5,5.2,-7.3,0.1,?,0.5,17.0,·
O=C1OCC(CO)(CO)N=C1NNc1cc(Cl)ccc1Cl,·,-5.9,-3.6,-0.4,0.7,?,1.7,1.4%
NC(=O)C1CCCN(CC(O)COCc2ccc(Cl)cc2)C1 (stereo not given),-7.3,-2.0,-1.5,-0.3,7.8,-1.1,9.0,3.3%

# Three of the compounds above, as tab-separated lines:
mol	AF4-AF9 inh	Beta apoptosis	LANA-H2B inh	A1 inh	RanGTP-Imp inh	Calb FLC	T cruzi inh	Vif TR-FRET
O=C(CCN1C(=O)/C(=C/c2ccccc2)SC1=S)NC1CCS(=O)(=O)C1 (stereo not given)	-9.9	-12.2	0.0	0.1	0.4	-7.0	-12.9	·
CCOc1ccc(N(CC(=O)NCCc2ccc(C)cc2)S(=O)(=O)c2c(C)noc2C)cc1	-2.2	0.1	-3.0	0.0	-1.4	11.7	17.6	-5.3%
S=C(Nc1ccccc1)Nc1nccs1	4.9	22.5	3.1	-0.5	0.5	-6.4	14.4	-6.3%

# Part of the list above, bar-delimited:
SMILES | AF4-AF9 inh | Beta apoptosis | LANA-H2B inh | A1 inh | RanGTP-Imp inh | Calb FLC | T cruzi inh | Vif TR-FRET
CCOc1ccc(N(CC(=O)NCCc2ccc(C)cc2)S(=O)(=O)c2c(C)noc2C)cc1 | -2.2 | 0.1 | -3.0 | 0.0 | -1.4 | 11.7 | 17.6 | -5.3%
CN(C)c1ccc(NC(=O)CN2CCc3ccccc3C2)cc1 | 4.6 | -3.9 | 2.0 | 0.1 | ? | -8.5 | 0.3 | ·
COc1cc(/C=C2\SC(=S)N(NS(=O)(=O)c3ccc(C)cc3)C2=O)ccc1O | 4.1 | 3.0 | -8.4 | -0.1 | -0.5 | -2.3 | -3.5 | -12.8%
O=C1OCC(CO)(CO)N=C1NNc1cc(Cl)ccc1Cl | · | -5.9 | -3.6 | -0.4 | 0.7 | ? | 1.7 | 1.4%
Cc1cccc(Nc2nc(NC(C)C)nc(Oc3ccc(=O)n(C)n3)n2)c1 | · | 2.5 | -2.4 | 2.0 | ? | 10.6 | 8.9 | 9.9%

# Remaining list, next part.
SMILES,AF4-AF9 inh,Beta apoptosis,LANA-H2B inh,A1 inh,RanGTP-Imp inh,Calb FLC,T cruzi inh,Vif TR-FRET
COc1ccc(NC(=O)CN2CCC(C(N)=O)(N3CCCCC3)CC2)cc1,·,-5.7,5.9,0.1,10.1,-23.2,-3.9,5.3%
CCOc1ccc(S(=O)(=O)N(CC(=O)NCc2cccnc2)c2ccc(F)cc2)cc1,4.4,-4.5,1.0,-0.3,?,0.3,-9.8,·
CC(=O)c1cc(-c2ccc(F)cc2)n(CCC(=O)Nc2cccnc2)c1C,·,-3.5,7.5,0.9,?,-3.4,-0.4,1.2%
O=C(O)C1C2CCC(C2)C1C(=O)NCc1ccco1 (stereo not given),·,-0.8,4.9,0.2,?,-1.9,-4.5,0.5%
O=C1CCCN1CCCNc1nc2c(S(=O)(=O)c3ccccc3)nnn2c2ccc(Cl)cc12,1.3,11.8,-2.6,-0.3,3.1,-10.9,-2.8,·
O=C(CCC(=O)N(Cc1ccco1)C(C(=O)NC1CCCC1)c1ccncc1)Nc1cccnc1 (stereo not given),·,-5.3,-3.0,1.0,7.2,28.5,-3.2,8.1%
CCc1nnc(NC(=O)CSc2nnc(Cc3ccccc3)o2)s1,·,-3.3,-1.8,-0.2,-1.3,19.6,-22.8,75.6%
O=C(COc1ccccc1Br)Nc1ccc2c(c1)OCCCO2,-1.4,-2.2,-4.5,-2.3,3.5,-4.5,3.4,·
CCc1nnc(NC(=O)CCC(=O)O)s1,2.1,-3.5,2.0,0.3,0.5,-5.2,-4.4,5.7%
COc1cc(C(=O)NCC2(N(C)C)CCCCC2)ccc1OCc1ccccc1,2.4,-8.4,13.1,0.1,5.6,-7.1,-6.0,·
CCn1nccc1C(=O)Nc1ccc(Cl)cn1,·,8.9,1.5,-0.5,3.7,-0.3,-23.0,-0.1%
N#C/C(=C(\O)c1cc(Cl)sc1Cl)c1nc2ccccc2[nH]1,0.2,29.1,1.2,0.2,3.1,13.4,-15.7,·
CNc1c([N+](=O)[O-])cnn1-c1ccccn1,-1.1,·,4.0,-1.1,1.3,-22.0,-1.4,-4.8%
CCc1nc(Nc2cc(OC)ccc2OC)c2oc3ccccc3c2n1,2.1,3.2,1.1,0.5,-3.4,-4.2,28.7,-45.6%
O=C1SCC(c2ccccc2)=NN1Cc1ccccc1,·,-6.2,2.3,0.1,-1.8,-4.1,20.7,·
Cc1cc(C)cc(NC(=O)CCCn2nc(C)c3c(C)n(-c4ccccc4)nc3c2=O)c1,-3.8,-2.5,-2.8,0.1,-2.2,14.5,-9.6,·
Cc1cc(C)c(S(=O)(=O)Nc2ccc3c4c(cccc24)CC3)c(C)c1,·,14.5,-4.3,0.3,-0.6,9.0,7.2,-8.3%
N#CC(c1ccccc1)c1cnccn1 (stereo not given),-1.5,-2.0,-1.9,2.3,1.2,-1.2,-26.0,·
Clc1ccc(Cc2noc(CN3CCN(c4ccccc4)CC3)n2)c(Cl)c1,·,4.9,-2.3,0.2,7.6,-25.4,23.1,2.0%
COc1ccccc1NC(=O)Nc1cnccn1,-7.2,-1.1,8.5,-4.4,3.4,8.1,10.2,5.8%
Cn1c(CCc2nc3ccccc3[nH]2)nnc1SCC#N,-1.0,-4.7,-4.1,-0.3,7.6,1.8,-9.3,-5.7%
CCN(CC)S(=O)(=O)c1ccc(-c2nnc(SCC(=O)Nc3nnc(C)s3)n2CC)cc1,·,3.6,-1.7,0.1,-1.5,-10.1,6.0,-8.6%
Cc1ccc(OC(C)c2nnc(N)s2)cc1Cl (stereo not given),·,-17.8,2.1,0.2,·,-8.7,·,1.2%
COC(=O)c1c(C)oc(C)c1S(=O)(=O)N(C)C1CCCCC1,·,-2.7,-1.6,0.3,6.3,-15.9,-7.0,-4.8%
CCCCCC(=O)NC(NC(=S)Nc1ccc(S(N)(=O)=O)cc1)C(Cl)(Cl)Cl (stereo not given),·,3.3,-2.4,0.7,3.7,0.9,-20.3,-2.7%
COCCN(C(=O)COC(=O)C1CC1)c1c(N)n(Cc2ccccc2)c(=O)[nH]c1=O,-1.2,·,-4.7,0.2,1.1,-6.8,-3.5,2.4%
O=c1c2ccccc2ncn1-c1ccc(Cl)c(Cl)c1,2.9,-4.5,-1.1,-0.4,0.3,4.6,-1.1,3.4%
CCOC(=O)c1ccccc1NC(=O)C1=COCCO1,0.2,-0.5,1.1,-0.5,-0.3,5.1,-4.5,-0.8%
O=C(COC(=O)c1ccc(O)cc1)Nc1ncc(Cl)cc1Cl,-1.1,-9.2,-2.0,0.7,6.7,31.8,-4.8,-2.9%
COc1ccccc1NC(=O)CNS(=O)(=O)c1ccccc1,·,-8.7,-2.0,-0.4,4.6,-5.1,-0.2,1.0%
Cc1ccc(C)c(N(CC(=O)NC(C)(C)C)C(=O)CCC(=O)Nc2nccs2)c1,4.3,0.1,-2.2,0.4,3.4,-22.7,2.9,·
Cc1ccc(C(C)n2cc(C(=O)NCc3cccnc3)nn2)cc1 (stereo not given),·,-2.9,3.2,0.6,-1.7,5.1,3.0,?
COc1ccccc1N1CCN(CC(=O)Nc2ccc(Cl)c(C(F)(F)F)c2)CC1,-19.4,-8.5,4.3,0.4,-0.1,-5.5,5.0,8.3%
Cc1cc(C)nc(N(C#N)CC(=O)N2CCC(C(N)=O)CC2)n1,·,-2.2,-0.4,-0.1,1.0,3.0,-5.9,1.9%
COc1ccc(OC)c(S(=O)(=O)N2CCC(C(=O)NCc3ccccn3)CC2)c1,0.7,0.7,1.2,-0.2,0.1,2.0,-11.8,?
COc1ccc(S(=O)(=O)N2CCOCC2)cc1NC(=O)CSc1nnc2c(n1)[nH]c1ccccc12,-21.1,5.9,-1.5,1.0,0.6,-3.3,1.5,-5.0%
CCN(C(=O)c1ccnn1C)c1ccccc1,·,-8.3,5.6,-0.3,1.8,-25.8,-15.3,-7.6%
CCOc1cc(N(CC)CC)ccc1/C=C(/C#N)c1nc2ccccc2[nH]1,·,19.1,-1.5,1.4,-78.9,-9.0,?,0.9%
CC(NC(=O)CCC(=O)c1cccs1)c1ccccc1 (stereo not given),-0.1,4.8,4.8,-0.9,4.3,-0.5,-6.3,2.2%
COc1cccc(CN2CC(C(=O)NCc3ccc(C)c(F)c3)CCC2=O)c1 (stereo not given),-1.7,-3.9,-3.0,0.3,4.4,-0.8,-3.5,-1.6%
CCOC(=O)CC(=O)c1[nH]c(C)c(C(=O)OCC)c1C,-5.1,-3.1,-2.9,0.1,-5.4,21.2,-6.5,-11.2%
COc1ccc(C(=O)OCC(=O)NCc2cccs2)c(OC)c1OC,-5.3,2.1,3.2,0.5,·,·,·,·

# Screening results as filed in PubChem BioAssay.
